A1 apoptosis 2 = A1 inhibitors via caspase activation, primary screen, cell-based, luminescence, HTS, two replicates; MEF A1-2A-BIM cells, caspase-Glo luminescence, 3 h; percent of clofoctol response, DMSO zero; caspase activation, % (test concentration not listed); 24,000 tested, under 10 active; in the data active = caspase activation above about 5.9%;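 also: wells of about 30 µL received 50 nL stock; the first replicate is given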
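Material: A1-2A-BIM-expressing MEF cells. Buffer or medium: RPMI-1640 plus 10% FBS. Incubation: cells settled overnight, compound exposure 3 h at 37 °C, 5% CO2. Signal: Caspase-Glo 3/7 luminescence, 1 h at room temperature.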
* hit, by the source's call; & = joins results of further samples. The list is partial (hit frequency here may not be typical).

structure	A1 apoptosis 2
Cc1noc(C)c1NC(=O)N(C)C[C@H]1OCCCC[C@@H](C)Oc2ccc(NC(=O)Cc3ccccc3)cc2C(=O)N([C@H](C)CO)C[C@@H]1C	-1.2
COc1ccc(S(=O)(=O)Nc2ccc3c(c2)C(=O)N([C@@H](C)CO)C[C@@H](C)[C@H](CN(C)C(=O)Nc2ccc(C(F)(F)F)cc2)OCCCC[C@@H](C)O3)cc1	-0.7
Cc1ccc(S(=O)(=O)N(C)C[C@@H]2OCCCC[C@H](C)Oc3ccc(NS(=O)(=O)c4ccc(F)cc4)cc3C(=O)N([C@@H](C)CO)C[C@@H]2C)cc1	-0.6
COc1ccc(NC(=O)Nc2ccc3c(c2)C(=O)N([C@H](C)CO)C[C@H](C)[C@H](CN(C)C(=O)Nc2ccc(OC)cc2)O3)cc1	0.0
COc1ccc(NC(=O)Nc2ccc3c(c2)C(=O)N([C@@H](C)CO)C[C@@H](C)[C@@H](CN(C)C)O3)cc1	1.1
C[C@@H]1CN([C@H](C)CO)C(=O)c2cccc(NS(=O)(=O)c3cccs3)c2O[C@@H]1CN(C)Cc1ccc(Cl)c(Cl)c1	-0.7
Cc1noc(C)c1NC(=O)Nc1cccc2c1O[C@H](CN(C)S(=O)(=O)c1cn(C)cn1)[C@@H](C)CN([C@@H](C)CO)C2=O	-0.1
C[C@@H]1CCCCO[C@H](CN(C)C(=O)Cc2ccccc2)[C@H](C)CN([C@@H](C)CO)C(=O)c2cc(N(C)C)ccc2O1	-0.2
Cc1noc(C)c1NC(=O)N(C)C[C@H]1OCCCC[C@@H](C)Oc2ccc(NC(=O)c3ccncc3)cc2C(=O)N([C@@H](C)CO)C[C@H]1C	-0.3
C[C@@H]1CN([C@H](C)CO)C(=O)c2cccc(NC(=O)c3ccc(-c4nccs4)cc3)c2O[C@@H]1CN(C)S(C)(=O)=O	-0.4
C[C@H](CO)N1C[C@H](C)[C@H](CN(C)C)Oc2ccc(NC(=O)Nc3cccc4ccccc34)cc2C1=O	-1.0
COc1ccc(S(=O)(=O)Nc2cccc3c2O[C@H](CN(C)Cc2ccc(-c4ccccc4)cc2)[C@H](C)CN([C@H](C)CO)C3=O)cc1	-0.5
C[C@H]1CCCCO[C@@H](CN(C)C(=O)CCC(F)(F)F)[C@@H](C)CN([C@@H](C)CO)C(=O)c2cc(NC(=O)NC3CCCCC3)ccc2O1	-1.4
O=C(NO)c1ccc(C(=O)N/N=C/c2ccc(-n3ccnc3)cc2)cc1	0.5
C[C@@H]1CCCCO[C@H](CN(C)C(=O)Nc2ccc(C(F)(F)F)cc2)[C@@H](C)CN([C@H](C)CO)C(=O)c2cc(NS(=O)(=O)c3ccc(Cl)cc3)ccc2O1	0.1
C[C@H](CO)N1C[C@H](C)[C@H](CN(C)Cc2ccncc2)Oc2c(NS(=O)(=O)c3ccc(F)cc3)cccc2C1=O	-0.2
C[C@@H]1CN([C@@H](C)CO)C(=O)c2cc(NC(=O)Nc3ccc(F)cc3)ccc2O[C@@H](C)CCCCO[C@@H]1CN(C)S(=O)(=O)c1cccs1	0.0
COc1ccc(NC(=O)Nc2ccc3c(c2)C(=O)N([C@H](C)CO)C[C@H](C)[C@H](CN(C)Cc2ccc(Cl)c(Cl)c2)OCCCC[C@H](C)O3)cc1	-1.5
COc1ccc([C@H]2C=C(C(=O)O)O[C@@H](OCCCCO)C2)cc1	-1.0&-0.5
Cc1ccc(S(=O)(=O)Nc2ccc3c(c2)C(=O)N([C@@H](C)CO)C[C@@H](C)[C@H](CN(C)C(=O)C2CCCCC2)OCCCC[C@@H](C)O3)cc1	-0.1
C[C@@H]1CN([C@H](C)CO)C(=O)c2cc(NC(=O)CCC(F)(F)F)ccc2O[C@@H]1CN(C)C(=O)Nc1ccc(C(F)(F)F)cc1	0.2
COc1ccc(S(=O)(=O)N(C)C[C@@H]2Oc3c(NS(=O)(=O)c4cn(C)cn4)cccc3C(=O)N([C@@H](C)CO)C[C@@H]2C)cc1	0.7
C[C@@H]1CCCCO[C@@H](CN(C)Cc2ccccc2)[C@@H](C)CN([C@H](C)CO)C(=O)c2cc(NC(=O)Nc3cccc4ccccc34)ccc2O1	0.2
O=C(N/N=C/[C@H](O)[C@H](O)[C@@H](O)[C@@H](O)CO)c1ccccc1O	0.3

In the list so far, seven contain fluorine.
structure	A1 apoptosis 2
COc1ccc(S(=O)(=O)Nc2ccc3c(c2)C(=O)N([C@@H](C)CO)C[C@@H](C)[C@H](CN(C)C(=O)Nc2ccc(C(F)(F)F)cc2)OCCCC[C@@H](C)O3)cc1	-0.7
Cc1ccc(S(=O)(=O)N(C)C[C@@H]2OCCCC[C@H](C)Oc3ccc(NS(=O)(=O)c4ccc(F)cc4)cc3C(=O)N([C@@H](C)CO)C[C@@H]2C)cc1	-0.6
C[C@H]1CCCCO[C@@H](CN(C)C(=O)CCC(F)(F)F)[C@@H](C)CN([C@@H](C)CO)C(=O)c2cc(NC(=O)NC3CCCCC3)ccc2O1	-1.4
C[C@@H]1CCCCO[C@H](CN(C)C(=O)Nc2ccc(C(F)(F)F)cc2)[C@@H](C)CN([C@H](C)CO)C(=O)c2cc(NS(=O)(=O)c3ccc(Cl)cc3)ccc2O1	0.1
C[C@H](CO)N1C[C@H](C)[C@H](CN(C)Cc2ccncc2)Oc2c(NS(=O)(=O)c3ccc(F)cc3)cccc2C1=O	-0.2
C[C@@H]1CN([C@@H](C)CO)C(=O)c2cc(NC(=O)Nc3ccc(F)cc3)ccc2O[C@@H](C)CCCCO[C@@H]1CN(C)S(=O)(=O)c1cccs1	0.0
C[C@@H]1CN([C@H](C)CO)C(=O)c2cc(NC(=O)CCC(F)(F)F)ccc2O[C@@H]1CN(C)C(=O)Nc1ccc(C(F)(F)F)cc1	0.2

Next section
structure	A1 apoptosis 2
COc1ccc(S(=O)(=O)Nc2ccc3c(c2)C(=O)N([C@@H](C)CO)C[C@H](C)[C@H](CN(C)C(=O)Nc2cccc4ccccc24)OCCCC[C@H](C)O3)cc1	0.3
O=C(CCCCC(=O)N/N=C/c1ccc(Br)o1)NO	-1.1
C[C@H]1CN([C@@H](C)CO)C(=O)c2cc(NS(=O)(=O)c3cccs3)ccc2O[C@H]1CN(C)S(=O)(=O)c1ccc(F)cc1	-1.1
COc1ccc(S(=O)(=O)N(C)C[C@H]2OCCCC[C@H](C)Oc3ccc(NS(=O)(=O)c4ccc(C)cc4)cc3C(=O)N([C@@H](C)CO)C[C@@H]2C)cc1	-0.1
C[C@H](CO)N1C[C@H](C)[C@H](CN(C)C(=O)Nc2ccc(F)cc2)OCCCC[C@H](C)Oc2ccc(NS(=O)(=O)c3ccccc3)cc2C1=O	-1.1
C[C@H](CO)N1C[C@H](C)[C@H](CN(C)C(=O)Nc2ccc(F)cc2)Oc2ncccc2C1=O	-0.5
C=CCN1C(=O)[C@]2(O[C@H](CCO)[C@@H]([Si](C)(C)c3ccc(OC)cc3)[C@@H]2C)c2cc(N3CCOC3=O)ccc21	-0.1
C[C@@H]1CN([C@H](C)CO)C(=O)c2cccc(N(C)C)c2O[C@H]1CN(C)S(=O)(=O)c1ccc(Cl)cc1	-0.2
COc1ccc(S(=O)(=O)Nc2ccc3c(c2)C(=O)N([C@H](C)CO)C[C@@H](C)[C@@H](CN(C)S(=O)(=O)c2cccs2)O3)cc1	0.7
Cc1cc(C(=O)Nc2cccc3c2O[C@H](CN(C)C(=O)Nc2c(C)noc2C)[C@H](C)CN([C@H](C)CO)C3=O)n(C)n1	2.0
COc1ccc(S(=O)(=O)Nc2ccc3c(c2)CC(=O)N([C@@H](C)CO)C[C@H](C)[C@H](CN(C)Cc2ccncc2)O3)cc1	0.7
Cc1noc(C)c1NC(=O)N(C)C[C@@H]1Oc2ccc(NC(=O)CCN3CCOCC3)cc2CC(=O)N([C@H](C)CO)C[C@@H]1C	0.0
Cc1noc(C)c1S(=O)(=O)N(C)C[C@H]1Oc2ccc(NC(=O)NC3CCCCC3)cc2CC(=O)N([C@@H](C)CO)C[C@@H]1C	0.2
C[C@H]1CN([C@@H](C)CO)C(=O)c2cccc(NC(=O)Nc3ccc(F)cc3)c2O[C@@H]1CN(C)S(C)(=O)=O	-1.4
C[C@@H]1CCCCO[C@@H](CN(C)C(=O)Nc2ccc(F)cc2)[C@@H](C)CN([C@H](C)CO)C(=O)c2cc(NS(=O)(=O)c3cccs3)ccc2O1	-0.1
C[C@H]1CN([C@@H](C)CO)C(=O)Cc2cc(NS(=O)(=O)c3ccccc3)ccc2O[C@@H]1CN(C)C(=O)Nc1ccccc1	0.4
C[C@@H]1CN([C@@H](C)CO)C(=O)c2cc(NS(C)(=O)=O)ccc2O[C@@H]1CN(C)S(C)(=O)=O	-0.4
Cc1ccc(S(=O)(=O)NC2CCN(Cc3cccc(OCCO)c3)CC2)cc1	-1.1
C[C@H](CO)N1C[C@H](C)[C@H](CN(C)S(=O)(=O)c2ccc(Cl)cc2)Oc2c(NC(=O)Nc3ccc4c(c3)OCO4)cccc2C1=O	-0.2
C[C@H]1CCCCO[C@@H](CN(C)C(=O)Nc2ccc(F)cc2)[C@@H](C)CN([C@@H](C)CO)C(=O)c2cc(NC(=O)C3CCCCC3)ccc2O1	1.5
C[C@@H]1CCCCO[C@H](CN(C)C)[C@H](C)CN([C@@H](C)CO)C(=O)c2cc(NC(=O)c3ccncc3)ccc2O1	1.0
Cc1ccc(S(=O)(=O)Nc2ccc3c(c2)CC(=O)N([C@H](C)CO)C[C@@H](C)[C@H](CN(C)Cc2ccc(C(F)(F)F)cc2)O3)cc1	-1.1
C[C@H]1CCCCO[C@H](CN(C)C(=O)Nc2ccc(C(F)(F)F)cc2)[C@@H](C)CN([C@@H](C)CO)C(=O)c2cc(NS(C)(=O)=O)ccc2O1	0.6
C[C@H]1CN([C@@H](C)CO)C(=O)CCCn2nncc2CO[C@H]1CN(C)Cc1ccc2cccnc2c1	-1.2
C[C@H]1CN([C@@H](C)CO)C(=O)c2cccc(NS(=O)(=O)c3cccs3)c2O[C@@H]1CN(C)S(=O)(=O)c1ccc(Cl)cc1	-1.5
Cc1ccc(S(=O)(=O)N(C)C[C@H]2Oc3ccc(NC(=O)CCCCCC(=O)Nc4ccccc4N)cc3C(=O)N([C@@H](C)CO)C[C@@H]2C)cc1	0.8
C[C@H](CO)N1C[C@H](C)[C@H](CN(C)S(C)(=O)=O)OCCCC[C@H](C)Oc2ccc(NS(=O)(=O)c3ccccc3)cc2C1=O	0.5
C[C@@H]1CN([C@@H](C)CO)C(=O)CCCn2nncc2CO[C@H]1CN(C)C(=O)Nc1ccc(C(C)(C)C)cc1	0.1
Cc1noc(C)c1S(=O)(=O)N(C)C[C@H]1OCCCC[C@@H](C)Oc2ccc(NC(=O)NC(C)C)cc2C(=O)N([C@H](C)CO)C[C@@H]1C	-1.8
C[C@@H]1CCCCO[C@@H](CN(C)C(=O)Nc2ccccc2)[C@@H](C)CN([C@@H](C)CO)C(=O)c2cc(NC(=O)Nc3cccc4ccccc34)ccc2O1	-0.5
O=C(CCCCCCC(=O)Nc1ccccc1O)N/N=C/[C@H](O)[C@@H](O)[C@H](O)[C@H](O)CO	0.3
COc1cccc(S(=O)(=O)N(C)C[C@@H]2OCc3cnnn3CCCC(=O)N([C@@H](C)CO)C[C@H]2C)c1	-0.1
C[C@H]1CN([C@@H](C)CO)C(=O)Cc2cc(NC(=O)CCCN(C)C)ccc2O[C@@H]1CN(C)Cc1ccc(-c2ccccc2)cc1	0.3
C[C@@H]1CCCCO[C@@H](CN(C)CC2CCCCC2)[C@@H](C)CN([C@@H](C)CO)C(=O)c2cc(NC(=O)NC3CCCCC3)ccc2O1	0.0
CC(C)NC(=O)N(C)C[C@@H]1Oc2ncc(-c3cc4ccccc4o3)cc2C(=O)N([C@H](C)CO)C[C@@H]1C	1.1
COc1ccc(CN(C)C[C@@H]2OCCCC[C@H](C)Oc3ccc(NS(=O)(=O)c4cccs4)cc3C(=O)N([C@@H](C)CO)C[C@H]2C)cc1	0.1
C[C@@H]1CN([C@H](C)CO)C(=O)c2cc(NC(=O)Nc3ccc(F)cc3)ccc2O[C@H]1CN(C)S(=O)(=O)c1ccc(Cl)cc1	0.1
C[C@@H]1CCCCO[C@@H](CN(C)C(=O)Nc2ccc3c(c2)OCO3)[C@@H](C)CN([C@H](C)CO)C(=O)c2cc(NC(=O)Nc3ccc(C(F)(F)F)cc3)ccc2O1	0.4
C[C@@H]1CCCCO[C@H](CN(C)Cc2ccc(C(F)(F)F)cc2)[C@H](C)CN([C@H](C)CO)C(=O)c2cc(NC(=O)Nc3ccc4c(c3)OCO4)ccc2O1	0.6
C[C@@H]1CCCCO[C@@H](CN(C)C(=O)Nc2ccccc2)[C@H](C)CN([C@H](C)CO)C(=O)c2cc(NS(=O)(=O)c3ccc(F)cc3)ccc2O1	0.4
COc1ccc(NC(=O)Nc2cccc3c2O[C@@H](CN(C)Cc2ccc(C(=O)Nc4ccccc4N)cc2)[C@@H](C)CN([C@@H](C)CO)C3=O)cc1	-0.8
COc1ccc(S(=O)(=O)Nc2ccc3c(c2)C(=O)N([C@H](C)CO)C[C@H](C)[C@@H](CN(C)S(=O)(=O)c2ccccc2)O3)cc1	-1.3
COc1ccc(S(=O)(=O)N(C)C[C@H]2Oc3c(NC(=O)Nc4ccc5c(c4)OCO5)cccc3C(=O)N([C@H](C)CO)C[C@H]2C)cc1	1.2
COc1ccc(CN(C)C[C@@H]2Oc3ccc(NS(=O)(=O)c4c(C)noc4C)cc3CC(=O)N([C@H](C)CO)C[C@H]2C)cc1	-0.7
Cc1ccc(S(=O)(=O)Nc2cccc3c2O[C@H](CN(C)S(=O)(=O)c2cn(C)cn2)[C@@H](C)CN([C@H](C)CO)C3=O)cc1	-1.0
C[C@@H]1CCCCO[C@H](CN(C)C)[C@H](C)CN([C@@H](C)CO)C(=O)c2cc(NC(=O)Cc3ccccc3)ccc2O1	1.4
